Screens: PubChem, several laboratories
ALR H2O2 inh: human ALR oxidase inhibition via reduced H2O2; P55789; actives 3.8% (n = 290,000); purified ALR, DTT oxidation, H2O2 HRP-luminol luminescence; inhibition, % (no concentration beside the values);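 active = mean and each replicate at 75% or more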;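 note: stock transfer was 7.5 nL into about 7.5 µL; 0% = neutral wells and 100% = wells with inactivated enzyme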
E coli growth: inhibitors of Escherichia coli growth; actives 0.21% (n = 330,000); OD600, 23 h; active compounds read low; OD600 absorbance (no concentration beside the values);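 active = OD600 absorbance below the run mean of sample wells minus 3.6 SD, in any replicate, cut at about 0.56 in these data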;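 note: stock transfer was 300 nL into about 60 µL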
B2AR ag: human beta-2 adrenergic receptor agonism by FAP. actives 0.43% (n = 340,000). AID 504454. Am2.2-beta2AR cells, FAP receptor internalization, flow cytometry; reference of the scale not given here. P07550. response, % (concentration not given with the values);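 active = response above a set limit, near 3 SD of response in nonfluorescent compounds, cut at about 42% in these data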;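 note: stock transfer was 100 nL into about 11 µL; a reference agonist was the positive control; negative values mostly stem from fluorescent compounds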
Target sequence (P07550 whole entry, looked up): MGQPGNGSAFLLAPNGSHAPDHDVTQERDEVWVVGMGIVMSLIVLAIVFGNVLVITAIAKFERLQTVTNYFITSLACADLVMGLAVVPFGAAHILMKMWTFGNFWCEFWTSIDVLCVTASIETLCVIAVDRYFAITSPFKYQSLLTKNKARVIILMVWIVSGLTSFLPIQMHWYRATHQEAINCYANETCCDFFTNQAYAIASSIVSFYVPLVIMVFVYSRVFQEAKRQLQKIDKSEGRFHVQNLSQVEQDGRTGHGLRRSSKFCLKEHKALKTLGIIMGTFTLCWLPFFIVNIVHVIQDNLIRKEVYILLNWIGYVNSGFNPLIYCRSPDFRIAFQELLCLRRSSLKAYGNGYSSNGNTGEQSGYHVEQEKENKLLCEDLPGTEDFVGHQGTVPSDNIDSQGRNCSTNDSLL
HNF4A DNA FP: change in binding of human HNF4 alpha to DNA. activity change, % at 10 µM. actives 0.3% (n = 360,000). AID 1224865. HNF4a-FITC DNA binding, fluorescence polarization, 1 h; in the data active = activity change above about 30%, passing the limit was not always enough;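 note: controls were the assay level and a saturating level of protein; the project sought stronger binding though the title names inhibitors; some compounds called inactive have numbers as strong as hits; positive values seem to mean higher polarization but the record does not say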
Target sequence (P41235 whole entry, looked up): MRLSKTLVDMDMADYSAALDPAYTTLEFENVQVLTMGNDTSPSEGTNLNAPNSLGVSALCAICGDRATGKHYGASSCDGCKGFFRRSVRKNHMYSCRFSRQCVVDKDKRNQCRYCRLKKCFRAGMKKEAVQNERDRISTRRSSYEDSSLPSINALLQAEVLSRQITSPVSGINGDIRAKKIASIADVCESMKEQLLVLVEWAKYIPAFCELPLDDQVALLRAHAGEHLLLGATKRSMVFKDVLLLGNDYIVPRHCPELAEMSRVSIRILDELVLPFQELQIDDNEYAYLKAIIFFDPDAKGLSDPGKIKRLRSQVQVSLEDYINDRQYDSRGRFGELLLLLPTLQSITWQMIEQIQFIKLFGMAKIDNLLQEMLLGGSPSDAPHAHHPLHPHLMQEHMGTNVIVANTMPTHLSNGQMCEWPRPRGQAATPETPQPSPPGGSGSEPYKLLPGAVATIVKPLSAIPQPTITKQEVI
Ecoli rRNA inh: selective bacterial rRNA inhibition in E. coli | E. coli WT GFP vs humanized-ribosome RFP mutants, fluorescence, 24 h; active compounds read low; DMSO median 0, no signal -100 | GFP signal change (wild-type ribosome), % (no concentration beside the values) | AID 720706 | actives 1.6% (n = 350,000);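 active = significant combined selectivity score with lowered wild-type GFP, culture density cut under 30%, mutant RFP and density less affected; inactive = any of these conditions unmet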; note: one replicate is shown; some compounds called inactive have numbers as strong as hits
UCH37 inh: blocks the human deubiquitinase UCH37; purified proteasome/UCH37, Ub-AMC cleavage fluorescence; inhibition, % (concentration not given with the values); actives 0.33% (n = 330,000); AID 588478;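 active = mean of two replicates above 20%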;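 note: 0% = compound-free wells with enzyme and 100% = wells lacking proteasome; stock transfer was 100 nL into about 20 µL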
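system = Proteasome-associated human UCH37 deubiquitinase | amount = 0.15 nM proteasome as dispensed | medium = pH 7.4 Tris-HCl (50 mM) with ovalbumin, ATP-MgCl2, DTT | incubation = 30 min preincubation with enzyme, 25 min cleavage at room temperature | detection = AMC fluorescence 355/460 nm | read-out basis = percent inhibition | controls = no-proteasome and no-compound wells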
FGF22 binding: FGF22 (human) thermal shift binding. calls only at 9.99 µM. recombinant FGF22 thermal shift, SYPRO orange fluorescence; percent of sucrose octasulfate shift, DMSO zero. Q9HCT0. actives 1.5% (n = 340,000);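 active = melting point raised past a set limit in the mean and every replicate; three in four hits are not shown here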
Target sequence (Q9HCT0 whole entry, looked up): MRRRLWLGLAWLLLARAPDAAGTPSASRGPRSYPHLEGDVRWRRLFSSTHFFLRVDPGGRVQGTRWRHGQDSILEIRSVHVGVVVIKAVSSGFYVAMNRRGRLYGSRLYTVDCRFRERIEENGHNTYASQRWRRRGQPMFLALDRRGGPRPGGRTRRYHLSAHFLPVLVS
Ecoli rRNA inh OD600: further read-out of Ecoli rRNA inh, marked with its call; OD600 change, %; measured here: OD600 growth;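 optical density of the mix in the first replicate; 0 = DMSO median and -100 = no signal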
Ecoli rRNA inh RFP: also measured in Ecoli rRNA inh; calls as there; RFP signal change, %; measured here: RFP humanized mutant strains;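 first replicate; 0 = DMSO median and -100 = no signal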
Numbers without * were called inactive; i = inactive; / = not tested or not shown; & = joins results of further samples; ! = not active in a repeat.

Structure	ALR H2O2 inh	E coli growth	B2AR ag	HNF4A DNA FP	Ecoli rRNA inh	Ecoli rRNA inh OD600	Ecoli rRNA inh RFP	UCH37 inh	FGF22 binding
CCC(c1nnnn1-c1ccc2c(c1)OCCO2)N1CCN(C)CC1 (stereo unspecified)	/	/	/	2.6	6.2	12.4	-5.5	/	i
CC1=Nc2cccc3cccc(c23)N1	/	0.715	10.5	4.9	/	/	/	10.2	/
CCn1c(SCC(=O)Nc2ccc(F)cc2)nc2ccccc2c1=O	/	0.692	-2.3	1.1	7.2	-3.5	-1.4	2.8	i
O=C(N/N=C/c1ccc([N+](=O)[O-])o1)c1sc2ccccc2c1Cl	-14.7	/	-0.8	9.9	0.1	10.9	2.2	/	i
CC(=O)Oc1cc2oc(=O)cc(C)c2cc1Cl	96.9*	0.693	2.4	2.0	-26.2*	-14.5*	-9.3*	i	i
COc1ccc(-n2c(=O)c3c(C)c(C)sc3n(Cc3cccc(F)c3)c2=O)c(OC)c1	0.1	0.732	3.6	5.3	2.9	-2.4	7.3	4.5	i
CCOC(=O)C1=CN(Cc2ccco2)S(=O)(=O)N(C)C1c1ccc(F)c(Cl)c1 (stereo unspecified)	/	0.733	2.7	1.2	-8.3	-13.0	0.5	5.1	i
C#CCOCCOCCOCCNc1nc(N2CCN(C(=O)CCCCCCCCCCNC(=O)Cn3cc(C[C@@H](C)O)nn3)CC2)nc(N2CCN(C(=O)CCCCCCCCCCNC(=O)[C@H](CO)n3cc(CCCSC)nn3)CC2)n1	-11.8	/	8.1	1.0	12.7	7.2	21.4	3.6	i
COc1ccc(C(=O)Nc2c(N)nc(SCC(=O)N3CCC(C)CC3)[nH]c2=O)cc1	0.1	0.684	-0.8	-2.7	1.2	4.5	-1.3	1.7	i
CC1CCN(c2nnc(NC(=O)Cn3c(=O)oc4ccccc43)s2)CC1	9.9	0.7	1.4	-1.4	4.2	7.7	-1.8	2.2	i
CCCCNC(=O)C[C@@H]1C[C@@]2(C(=O)OCC)CCCC=C2N(Cc2ccccc2)C1=O	/	/	/	0.4	-5.0	-5.1	3.2	/	i
COCCn1c(C)cc(C(=O)CN2C(=O)NC3(CCCCCCC3)C2=O)c1C	2.4	0.717	0.5	5.1	5.1	-2.7	-1.0	3.0	i
Cc1ccc(NC(=O)N(C2CCCCC2)C(C)c2cccnc2)cc1C (stereo unspecified)	-9.7	0.765	-1.7	0.3	0.9	5.0	-0.5	3.1	i
C[C@H]1O[C@H](C2CCCC2)CC2=C1C(=O)OC(C)(C)O2	/	/	/	4.1	16.3	6.3	1.2	/	i
N#C/C(=C/c1ccc(N2CCOCC2)o1)C(=O)N1CCOCC1	/	0.719	-10.3	158.8	20.5	14.0	9.0	33.4*	i
C[C@H]1CN([C@@H](C)CO)C(=O)CCCn2cc(nn2)CO[C@@H]1CN(C)C(=O)Nc1ccc(C(F)(F)F)cc1	/	/	/	2.3	3.5&-12.6	10.0&-10.3	1.6&-0.2	/	i
CCNc1nc(OCC)nc(N2CCC(Cc3ccccc3)CC2)n1	-15.6	0.698	1.1	-2.8	/	/	/	1.6	/
O=C(N/N=C\c1ccc[nH]1)C1COc2ccccc2O1 (stereo unspecified)	-11.8	/	6.6	2.1	-3.3	6.4	3.3	/	i
CCN(CC)c1ncnc2sc(C(=O)N3CCN(c4ccc(OC)cc4)CC3)c(C)c12	48.5	0.7	-4.3	1.6	/	/	/	1.0	/
O=C(Nc1ccc(S(=O)(=O)NCc2ccco2)cc1)c1ccc2ccccc2n1	/	0.68	-30.0	-1.2	/	/	/	-6.8	/
Cc1cnn(-c2cc(N/N=C/c3ccccc3)ncn2)c1	-10.5	/	-10.8	-2.2	3.3	4.2	-5.4	/	i
Nc1ccc2c(c1)C(=O)C(=O)c1ccccc1-2	33.3	0.59	80.5*	1.9	/	/	/	98.7*	/
CCOc1ccc(CN2CCNC(=O)C2CC(=O)NCCCOc2cccnc2)cc1 (stereo unspecified)	-3.2	0.7	0.2	-2.9	5.0	-0.1	1.4	0.0	i
COC(=O)Cc1ccc(NC(=S)NCCCN2CCOCC2)cc1	-19.3	0.72	4.8	-6.8	14.0	20.4	5.3	1.7	i
CCOc1ccc(-n2c(SCC(=O)Nc3ccc(Br)cc3)nc3n[nH]c(C)c3c2=N)cc1	-5.8	0.74	-1.2	2.4	19.8	19.4	2.6	-49.7	i
Cc1ccc(S(=O)(=O)CCC(=O)OCc2ccc(S(=O)(=O)C(C)C)cc2)cc1	-14.1	0.734	1.1	1.5	-3.8	-6.4	-1.3	0.4	i
COCCNC(=O)CN1CCC(n2c(C)nc3cc(C(F)(F)F)ccc32)CC1	/	0.673	3.2	-1.4	/	/	/	0.9	/
O=C(NCc1cccnc1)C(=O)N/N=C/c1ccc([N+](=O)[O-])cc1	-8.1	/	-0.7	4.3	6.8	6.0	-0.6	/	i
CCOc1ccc(NC(=O)/C=C/c2ccc(OC)cc2)c([N+](=O)[O-])c1	-1.7	0.71	-18.0	24.2	/	/	/	7.2	/
O=C(CCNC(=O)c1ccco1)NCCc1ccc(Cl)cc1	-15.6	0.669	-11.8	3.7	-5.2	-14.8	1.4	2.3	i
COc1ccc(S(=O)(=O)NNC(=O)c2ccc(-n3c(C)ccc3C)cc2)cc1	23.4	/	-0.3	4.6	11.0	5.3	1.1	/	i
S=C(Nc1ccccc1)N1CCC(C2CCN(C(=S)Nc3ccccc3)CC2)CC1	-4.2	0.684	/	/	/	/	/	4.8	/
COc1cc([N+](=O)[O-])ccc1NC(=S)NNC(=O)c1ccc2c(c1)OCO2	97.6*	0.669	-5.2	-0.5	-16.6*	5.5*	-0.1*	12.5	i
CCOC(=O)CN1C(=O)C(O)(CC(=O)c2ccco2)c2ccccc21 (stereo unspecified)	0.8	0.727	4.0	0.8	/	/	/	0.0	/
COCCOc1ccc(C(F)(F)F)cc1NC(=O)c1ccc(C(F)(F)F)cc1	-1.7	0.693	0.1	4.1	14.2	13.7	2.7	-9.7	i
COc1ccc(S(=O)(=O)N(C)CC(=O)NCc2ccccn2)cc1	/	0.671	4.6	0.3	3.5	14.3	-0.3	-1.3	i
COc1ccc(-c2c(-c3ccc(O)cc3O)n[nH]c2C(F)(F)F)cc1	/	0.665	11.8	-1.8	-56.4	-80.8	-26.1	3.2	i
CSc1ccccc1C(=O)Nc1cccc(C(C)=O)c1	0.1	0.716	-4.6	1.6	/	/	/	1.1	/
Cc1ccc([C@@H]2CC(=O)[C@@H]3CN(S(=O)(=O)c4ccc(C)cc4)[C@H](c4ccc(Cl)cc4)C[C@@H]3N2S(=O)(=O)c2ccc(Cl)cc2)cc1	/	/	/	-3.3	12.6	12.8	1.9	/	i
O=C(c1ccc(Cl)c(Cl)c1)N1CCC(=O)N([C@H](COCc2ccc(Cl)cc2)Cc2ccccc2)CC1	/	/	/	2.5	21.9	4.4	2.2	/	i
Cc1cccc(C)c1NC(=O)N1CCCCCCC1	0.5	0.68	1.8	1.5	1.2	3.6	-4.7	0.9	i
COc1cccc(CN2CCNC(=O)C2CC(=O)NCCOc2cccnc2)c1OC (stereo unspecified)	-4.1	0.656	-0.5	2.3	14.2	12.9	1.7	0.1	i
O=C(OCC(=O)N1CCCc2ccccc21)c1cc(Cl)ccc1O	-5.8	0.708	2.2	-0.3	14.7	12.8	3.4	-7.5	i
CC(=O)c1cc2c(cc1NC(=O)c1ccccc1C)OCO2	-17.8	0.684	/	/	/	/	/	-13.5	/
CC1=NN(C(=O)c2ccccc2Cl)C(O)(c2cccnc2)C1 (stereo unspecified)	-11.6	0.725	5.9	1.1	26.9	11.2	5.0	3.8	i
CC1=C(C(=O)OC2CCCC2)C(c2coc3ccccc3c2=O)C2=C(CCCC2=O)N1 (stereo unspecified)	/	0.739	-23.0	2.3	-11.4	-17.5	-1.0	6.6	i
C=CCNC(=O)C1CCN(c2nc(C)cc(-c3ccccc3)n2)CC1	-1.4	0.668	1.9	-0.1	/	/	/	-92.9	i
CO[C@@H]1O[C@@H]2COC(c3ccccc3)O[C@@H]2[C@@H](OC)[C@@H]1O (stereo partly specified)	6.9	0.711	-3.8	-4.2	/	/	/	-0.6	/
O=C(NCCc1ccccc1)C(=O)NCC1OCCN1S(=O)(=O)c1cc(F)ccc1F (stereo unspecified)	1.0	0.717	-6.1	5.1	3.0	-11.2	-5.5	5.1	i
O=C(NC(=S)NNC(=O)c1cnccn1)c1ccc(Cl)cc1	15.4	0.554	4.4	-0.7	6.7	4.0	3.0	3.8	i

Other results follow.
Structure	ALR H2O2 inh	E coli growth	B2AR ag	HNF4A DNA FP	Ecoli rRNA inh	Ecoli rRNA inh OD600	Ecoli rRNA inh RFP	UCH37 inh	FGF22 binding
O=S(=O)(NCC(c1cccnc1)N1CCN(c2ccccc2)CC1)c1cc(F)ccc1F (stereo unspecified)	25.2	0.76	-1.1	-2.6	/	/	/	2.0	/
Cc1ccc(C(=O)O)cc1NC(=O)CCc1ccccc1	/	0.651	-8.3	0.5	15.1	14.3	-1.6	1.8	/
COc1cc(NC(=O)C2CC(c3ccccc3O)=NO2)cc(OC)c1OC (stereo unspecified)	/	/	/	-1.8	-1.0	-1.8	1.3	/	i
COc1ccc(OC)c(NC(=O)CSc2nnc(-c3cnccn3)n2C)c1	-3.7	0.686	-2.9	0.7	11.9	9.2	-2.0	6.4	i
CN(CC(=O)Nc1ccc(Cl)c(C(F)(F)F)c1)C(=O)c1ccc2c(c1)NC(=O)CS2	/	0.681	4.8	8.6	-50.5	-74.0	-11.4	2.5	i
Cc1ccc(NC(=S)N(CCCN2CCOCC2)Cc2ccccn2)cc1	39.5	0.701	-6.3	1.7	3.5	16.4	-8.9	2.6	i
CC(C)(C)NC(=O)COc1ccc(CNCc2cccs2)cc1	-0.2	0.697	-2.2	0.6	/	/	/	3.7	/
COCCN(C(=O)CCC(=O)Nc1nccs1)C(C(=O)NC(C)(C)C)c1ccc(C)cc1 (stereo unspecified)	/	0.64	-1.2	-0.7	1.3	2.1	-1.2	0.0	i
Cn1cnnc1SCc1ccc(C(=O)N=Nc2c(O)n(Cc3ccc(Cl)cc3)c3ccccc23)cc1	/	0.719	7.0	0.2	/	/	/	8.2	/
COc1cc(OC)cc(C(=O)Nc2cccc(NC(=O)c3cc(OC)cc(OC)c3)n2)c1	-1.6	0.672	10.6	-0.6	/	/	/	3.2	i
CC1=C(C(=O)Nc2ccccn2)C(c2ccc(Br)cc2)n2ncnc2N1 (stereo unspecified)	9.0	0.695	0.4	-3.7	/	/	/	-1.7	/
O=S(=O)(Nc1ccccc1)N1CCCCC1	/	/	-1.2	-1.0	0.1	-0.5	1.3	/	i
Cc1ccc2oc(-c3ccc(C)c(NC(=O)Cc4cccs4)c3)nc2c1	-24.5	0.754	-0.3	1.5	/	/	/	-9.7	/
Cc1ccc(-n2cccn2)c(CN2CCCC(CNC(=O)c3ccc(F)cc3)C2)c1 (stereo unspecified)	-5.1	0.661	-4.3	-6.1	10.9	0.0	-7.8	3.9	i
O=C(NCc1ccccc1)C(c1ccccc1F)n1c(=O)c(-c2ccco2)nc2ccccc21 (stereo unspecified)	/	/	/	35.8	0.0	4.7	3.0	/	i
O=S(=O)(CCSc1nc2ccccc2o1)c1nc2ccccc2s1	59.5	0.677	-2.0	1.1	-32.0*!	-16.7*!	3.7*!	0.5	i

Only part of the results is shown (hit frequency here may not be typical).
